E coli growth = E. coli growth inhibition; Escherichia coli growth, OD600, 23 h; hits give low values; OD600 absorbance (test concentration not listed); actives 0.21% (n = 330,000);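 active means OD600 absorbance below the run mean of sample wells minus 3.6 SD, in any replicate, cut at about 0.56 in these data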;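 further: stock transfer was 300 nL into about 60 µL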
FGF22 binding = shifts melting point of recombinant human FGF22; Q9HCT0; recombinant FGF22 thermal shift, SYPRO orange fluorescence; percent of sucrose octasulfate shift, DMSO zero; calls only at 9.99 µM; actives 1.5% (n = 340,000); AID 651658;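 active means melting point raised past a set limit in the mean and every replicate; inconclusive means no clear call; three in four hits are not shown here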
rRNA inh HTS = inhibitors of bacterial rRNA selective over humanized ribosomes. E. coli WT GFP vs humanized-ribosome RFP mutants, fluorescence, 24 h; hits give low values; DMSO median 0, no signal -100. GFP signal change (wild-type ribosome), % (concentration not given with the values). actives 1.6% (n = 350,000);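 active means significant combined selectivity score with lowered wild-type GFP, culture density cut under 30%, mutant RFP and density less affected; inactive means any of these conditions unmet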; further: one replicate is shown; some compounds called inactive have numbers as strong as hits
ALR inh = blocks human ALR sulfhydryl oxidase activity; inhibition, % (concentration not given with the values); actives 3.8% (n = 290,000); purified ALR, DTT oxidation, H2O2 HRP-luminol luminescence; P55789;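 active means mean and each replicate at 75% or more; inconclusive means only one of the two met; inactive means neither met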;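 further: stock transfer was 7.5 nL into about 7.5 µL; 0% = neutral wells and 100% = wells with inactivated enzyme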
MLL AF4-AF9 inh = blocks AF4 peptide binding to human AF9. P42568. actives 0.47% (n = 350,000). AlphaScreen, biotin-AF4 peptide binding to FLAG-AF9. inhibition, % at 10 µM;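 active means every replicate reaching a set inhibition limit, whatever the replicate mean, cut at about 25% in these data; inconclusive means mean inhibition reaches that limit but some replicates miss it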;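 further: 0% = plate neutral control median and 100% = total signal loss; the record names both 10 and 1 µM as test concentration; the first replicate is given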
Target sequence (P42568 whole entry, looked up): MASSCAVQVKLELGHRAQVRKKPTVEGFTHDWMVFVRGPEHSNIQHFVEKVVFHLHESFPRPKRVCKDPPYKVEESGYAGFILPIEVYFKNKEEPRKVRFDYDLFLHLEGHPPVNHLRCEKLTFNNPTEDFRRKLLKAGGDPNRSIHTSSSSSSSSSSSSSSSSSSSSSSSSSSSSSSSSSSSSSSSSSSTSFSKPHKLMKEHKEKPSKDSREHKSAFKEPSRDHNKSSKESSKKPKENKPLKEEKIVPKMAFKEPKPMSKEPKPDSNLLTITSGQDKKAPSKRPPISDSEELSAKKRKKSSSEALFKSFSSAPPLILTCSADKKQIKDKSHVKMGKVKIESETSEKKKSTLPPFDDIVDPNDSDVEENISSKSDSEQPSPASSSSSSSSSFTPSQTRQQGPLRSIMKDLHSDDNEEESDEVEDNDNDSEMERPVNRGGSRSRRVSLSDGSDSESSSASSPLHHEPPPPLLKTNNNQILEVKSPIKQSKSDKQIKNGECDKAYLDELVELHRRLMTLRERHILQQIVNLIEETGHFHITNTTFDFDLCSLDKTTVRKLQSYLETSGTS
HNF4A DNA FP = change in binding of human HNF4 alpha to DNA; actives 0.3% (n = 360,000); P41235; activity change, % at 10 µM; HNF4a-FITC DNA binding, fluorescence polarization, 1 h; AID 1224865; in the data active means activity change above about 30%, passing the limit was not always enough;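 further: controls were the assay level and a saturating level of protein; the project sought stronger binding though the title names inhibitors; some compounds called inactive have numbers as strong as hits; positive values seem to mean higher polarization but the record does not say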
Target sequence (P41235 whole entry, looked up): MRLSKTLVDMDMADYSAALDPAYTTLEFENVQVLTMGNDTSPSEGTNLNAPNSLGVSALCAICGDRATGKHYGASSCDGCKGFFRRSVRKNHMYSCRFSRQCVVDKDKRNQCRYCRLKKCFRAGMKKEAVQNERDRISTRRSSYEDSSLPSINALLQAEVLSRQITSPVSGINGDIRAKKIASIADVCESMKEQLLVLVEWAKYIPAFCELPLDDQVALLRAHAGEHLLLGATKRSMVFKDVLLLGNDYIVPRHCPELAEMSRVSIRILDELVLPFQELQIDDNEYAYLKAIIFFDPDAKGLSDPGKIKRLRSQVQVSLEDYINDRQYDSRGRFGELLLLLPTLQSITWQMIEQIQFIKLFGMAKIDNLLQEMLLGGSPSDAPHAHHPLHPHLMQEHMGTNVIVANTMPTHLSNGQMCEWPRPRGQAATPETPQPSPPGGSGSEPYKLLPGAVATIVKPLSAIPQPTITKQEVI
Vif A3G = HIV-1 Vif–A3G interaction blockers – biochemical, TR-FRET, GST-Vif 1-94, biotin-A3G peptide, dose response retest, primary screen (AID 1117319); TR-FRET GST-Vif / biotin-A3G peptide binding; higher % means a stronger effect; test concentration not given here; strong numbers were not always called active; inhibition, %, or IC50 in µM where a hit was titrated; actives 0.57% (n = 260,000);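 active means above the screen mean plus three standard deviations and confirmed in dose response; inconclusive means results disagree or hit not tested in dose response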;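 further: Vif residues 1-94 fused to GST binding biotinylated APOBEC3G peptide 110-148; 0% = full assay without inhibitor and 100% = GST in place of GST-Vif; retest series ran down from 100 µM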
rRNA inh HTS OD600 = second read-out of rRNA inh HTS, no call of its own (marks repeat the call); OD600 change, %; measured here: OD600 growth;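 optical density of the mix in the first replicate; 0 = DMSO median and -100 = no signal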
rRNA inh HTS RFP = also measured in rRNA inh HTS; calls as there; RFP signal change, %; measured here: RFP humanized mutant strains;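 first replicate; 0 = DMSO median and -100 = no signal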
The depositor's hits bear a star; & = joins results of further samples. The list is partial; rates above refer to the full screens.

Start of the data: the first two entries, ahead of the listing:
Screening COc1cc(OC)cc(C(=O)NC2CCN(C(=O)N3c4ccccc4Sc4ccccc43)CC2)c1 returned E coli growth 0.7, ALR inh -65, HNF4A DNA FP -1.8 and Vif A3G 70%.
For CCCCCCC(=O)NCC(=O)OCC(=O)c1ccccc1 the results were E coli growth 0.75, ALR inh 3, HNF4A DNA FP -1.9 and Vif A3G 24%.

The list itself, previewed entries included:
Screening COc1cc(OC)cc(C(=O)NC2CCN(C(=O)N3c4ccccc4Sc4ccccc43)CC2)c1 returned E coli growth 0.7, ALR inh -65, HNF4A DNA FP -1.8 and Vif A3G 70%.
For CCCCCCC(=O)NCC(=O)OCC(=O)c1ccccc1 the results were E coli growth 0.75, ALR inh 3, HNF4A DNA FP -1.9 and Vif A3G 24%.
CCCc1cc(=O)oc2cc(OCC(=O)NC3CC(C)(C)NC(C)(C)C3)ccc12 was read as E coli growth 0.63, FGF22 binding inactive, rRNA inh HTS 0, ALR inh -21, MLL AF4-AF9 inh -1.6, HNF4A DNA FP -1.2, Vif A3G -6%, rRNA inh HTS OD600 2 and rRNA inh HTS RFP 0.3.
COc1ccc(NC(=O)CNC(=O)C23CC4CC(CC(C4)C2)C3)c(OC)c1 was read as E coli growth 0.66, FGF22 binding inactive, rRNA inh HTS -13, ALR inh -4, MLL AF4-AF9 inh 3.8, HNF4A DNA FP 1.1, Vif A3G 5%, rRNA inh HTS OD600 -19 and rRNA inh HTS RFP 0.6.
Cn1cccc1Cc1nnc(SCC(N)=O)n1CCc1ccccc1 was read as E coli growth 0.76, FGF22 binding inactive, rRNA inh HTS 9, ALR inh 36, MLL AF4-AF9 inh 3.1, HNF4A DNA FP -1.1, Vif A3G 68%, rRNA inh HTS OD600 6 and rRNA inh HTS RFP 1.8.
Screening CC(C)(C)/C=N/NC(=O)CNC(=O)c1ccc2c(c1)OCCO2 returned FGF22 binding inactive, rRNA inh HTS 7, ALR inh 3, MLL AF4-AF9 inh -0.1, HNF4A DNA FP -0.8, Vif A3G 1%, rRNA inh HTS OD600 7 and rRNA inh HTS RFP -6.0.
`Cc1cc(N=Nc2ccccc2C(=O)O)c(C)c(C)c1O` gave E coli growth 0.72, FGF22 binding inactive, rRNA inh HTS 5, ALR inh 81*, HNF4A DNA FP 32*, Vif A3G inconclusive, rRNA inh HTS OD600 -3 and rRNA inh HTS RFP 0.5.
Screening COC(=O)C[C@H]1CC[C@H](NC(=O)Nc2ccccc2OC)[C@@H](CO)O1 returned FGF22 binding inactive, rRNA inh HTS 17, MLL AF4-AF9 inh -1.9, HNF4A DNA FP 1.7, rRNA inh HTS OD600 7 and rRNA inh HTS RFP 0.7.
Screening CCN1[C@H](C(=O)NC2CCC2)[C@@H](CO)[C@@H]2Cn3c(ccc(-c4ccccc4F)c3=O)[C@@H]21 returned FGF22 binding inactive, rRNA inh HTS -5, MLL AF4-AF9 inh -3.6, rRNA inh HTS OD600 -6 and rRNA inh HTS RFP 0.7.
CC(C)c1c(O)nc(SCCN2CCOCC2)[nH]c1=O was read as E coli growth 0.67, ALR inh 2, HNF4A DNA FP -4.4 and Vif A3G 1%.
`C=CCSC1=NNC(c2ccc(C(C)(C)C)cc2)=NN1` gave E coli growth 0.67, FGF22 binding inactive, rRNA inh HTS 1, ALR inh -5, MLL AF4-AF9 inh -0.5, HNF4A DNA FP 3.5, Vif A3G -1%, rRNA inh HTS OD600 -1 and rRNA inh HTS RFP -0.1.
For O=C(CSc1nc2ncccc2[nH]1)c1ccc2c(c1)OCO2 the results were E coli growth 0.66, FGF22 binding inactive, rRNA inh HTS 11, ALR inh -2, MLL AF4-AF9 inh 0.6, HNF4A DNA FP 3.1, Vif A3G -2%, rRNA inh HTS OD600 13 and rRNA inh HTS RFP 1.0.
`CCc1nc(C)c(C#N)c2cc(OC)c(OC)cc12` gave E coli growth 0.73, ALR inh -24, HNF4A DNA FP 3.2 and Vif A3G -3%.
O=C(C[C@@H]1CC[C@@H]2[C@H](COC[C@H](O)CN2C(=O)c2cnccn2)O1)NCc1ccccc1 was read as FGF22 binding inactive, rRNA inh HTS -2, MLL AF4-AF9 inh -3.3, rRNA inh HTS OD600 -1 and rRNA inh HTS RFP -1.5.
Screening Nc1cc(OC(=O)c2ccco2)nn1S(=O)(=O)c1ccc(F)cc1 returned E coli growth 0.68, ALR inh 98*, HNF4A DNA FP -5.7 and Vif A3G -8%&28%.
Screening CCOC(=O)Cc1csc(SCc2nc3sc4c(c3c(=O)[nH]2)CCC4)n1 returned E coli growth 0.7, ALR inh -2, HNF4A DNA FP -1.9 and Vif A3G -3%.
For Cc1cc(C)n(-c2nc3ccccc3s2)n1 the results were E coli growth 0.68, FGF22 binding inactive, MLL AF4-AF9 inh -1.8, HNF4A DNA FP -2.1 and Vif A3G 2%.
CCCS(=O)(=O)c1nc(S(=O)(=O)c2ccc(C)cc2)c(N2CCC(O)CC2)s1 was read as E coli growth 0.66, FGF22 binding inactive, rRNA inh HTS -11, ALR inh -1, MLL AF4-AF9 inh 1.6, HNF4A DNA FP 9.6, rRNA inh HTS OD600 -11 and rRNA inh HTS RFP 2.6.
CN(C)S(=O)(=O)c1ccc(C(=O)N2CCN=C2SCc2cccnc2)cc1 was read as E coli growth 0.69, ALR inh 99*, HNF4A DNA FP 2.1 and Vif A3G -5%.
O=C(Nc1ccc(Br)cn1)C1CCN(S(=O)(=O)c2cccs2)CC1 was read as E coli growth 0.67, FGF22 binding inactive, rRNA inh HTS 7, ALR inh 3, MLL AF4-AF9 inh 6.5, HNF4A DNA FP -0.2, Vif A3G 77%, rRNA inh HTS OD600 2 and rRNA inh HTS RFP 2.0.
For CCN(CC(=O)NCc1ccc(Cl)cc1)C(=O)c1ccc(S(=O)(=O)NCc2ccco2)cc1 the results were E coli growth 0.71, FGF22 binding inactive, rRNA inh HTS -6, ALR inh -1, MLL AF4-AF9 inh -9.4, HNF4A DNA FP -2.8, Vif A3G -2%, rRNA inh HTS OD600 -9 and rRNA inh HTS RFP 0.1.
`CCS(=O)(=O)c1nc(S(=O)(=O)c2ccc(C)cc2)c(N2CCOCC2)s1` gave E coli growth 0.66, FGF22 binding inactive, rRNA inh HTS 10, ALR inh -1, MLL AF4-AF9 inh -2.8, HNF4A DNA FP -3.9, rRNA inh HTS OD600 13 and rRNA inh HTS RFP 1.1.
Screening COc1ccc(C(=O)Nc2c(N)nc(SCC(=O)Nc3ccc(C(C)=O)cc3)[nH]c2=O)cc1 returned E coli growth 0.73, FGF22 binding inactive, rRNA inh HTS 4, ALR inh -38, MLL AF4-AF9 inh -0.1, HNF4A DNA FP 2.3, Vif A3G 1%, rRNA inh HTS OD600 8 and rRNA inh HTS RFP -1.6.
`Cn1c(SCC(=O)N2CCCC2)nnc1-c1ccc(S(=O)(=O)N2CCCC2)cc1` gave E coli growth 0.69, HNF4A DNA FP -1.9 and Vif A3G 3%.
`CSc1nnc(C)c(=O)n1COC(=O)c1ccc(S(=O)(=O)N(C)C)cc1` gave E coli growth 0.69, ALR inh 3, HNF4A DNA FP -3.0 and Vif A3G 30%.
Screening CCCN1C(C)C(C(=O)OCC)=CN(Cc2cccc(I)c2)S1(=O)=O (centres undefined) returned E coli growth 0.71, HNF4A DNA FP -3.5 and Vif A3G 2%.
For Brc1ccc(-c2nnc(-c3ccccc3Br)o2)cc1 the results were E coli growth 0.67, ALR inh 15, HNF4A DNA FP -4.2 and Vif A3G 1%.
`CCOc1ccc(S(=O)(=O)N2CCOCC2)cc1NC(=O)C1CCC1` gave E coli growth 0.72, FGF22 binding inactive, rRNA inh HTS 1, ALR inh 3, MLL AF4-AF9 inh -3.5, HNF4A DNA FP 3.3, rRNA inh HTS OD600 2 and rRNA inh HTS RFP -2.9.
For O=C(COC(=O)c1ccccc1NS(=O)(=O)c1cccs1)NCC12CC3CC(CC(C3)C1)C2 the results were E coli growth 0.73, FGF22 binding inactive, rRNA inh HTS -3, ALR inh -6, MLL AF4-AF9 inh -4.5, HNF4A DNA FP 1.7, Vif A3G 21%, rRNA inh HTS OD600 -7 and rRNA inh HTS RFP -2.4.
Screening CC1CCN(C(=O)c2[nH]cnc2C(=O)Nc2cccc(Cl)c2)CC1 returned E coli growth 0.65, FGF22 binding inactive, rRNA inh HTS 4, ALR inh 2, MLL AF4-AF9 inh -0.4, HNF4A DNA FP 3.3, rRNA inh HTS OD600 0 and rRNA inh HTS RFP 8.6.
For Cc1cc(C(=O)N2CCc3ccccc3C2)c(C)o1 the results were E coli growth 0.65, FGF22 binding inactive, rRNA inh HTS 3, MLL AF4-AF9 inh 1.3, HNF4A DNA FP -0.8, Vif A3G -10%, rRNA inh HTS OD600 8 and rRNA inh HTS RFP -2.2.
CC(C)C(=O)Nc1ccc2c(c1)C(=O)NC2=O was read as E coli growth 0.71, FGF22 binding inactive, rRNA inh HTS 7, ALR inh -2, MLL AF4-AF9 inh -0.9, HNF4A DNA FP 0.5, Vif A3G 27%, rRNA inh HTS OD600 0 and rRNA inh HTS RFP 1.0.
O=C(CCNC(=O)c1ccc([N+](=O)[O-])cc1)Nc1ccccc1N1CCOCC1 was read as E coli growth 0.66, FGF22 binding inactive, rRNA inh HTS 15, ALR inh -8, MLL AF4-AF9 inh 3.3, HNF4A DNA FP -0.8, rRNA inh HTS OD600 11 and rRNA inh HTS RFP 2.3.
Screening CCCNC(=O)C[C@@H]1CC[C@H]2[C@@H](COc3ccc(NC(=O)CC)cc3C(=O)N2C)O1 returned FGF22 binding inactive, rRNA inh HTS 0, MLL AF4-AF9 inh -1.9, rRNA inh HTS OD600 2 and rRNA inh HTS RFP -2.0.
For CN(C)S(=O)(=O)N(CC(=O)NCCSCc1ccc(Cl)cc1)c1ccccc1 the results were E coli growth 0.68, FGF22 binding inactive, rRNA inh HTS -47, ALR inh -44, MLL AF4-AF9 inh -2.9, HNF4A DNA FP 2.9, Vif A3G -15%, rRNA inh HTS OD600 -68 and rRNA inh HTS RFP -15.
COc1ccc(NC(=O)CSCC(=O)N2CCN(c3cccc(C(F)(F)F)c3)CC2)cc1 was read as E coli growth 0.7, FGF22 binding inactive, rRNA inh HTS -19, ALR inh -14, MLL AF4-AF9 inh 2.6, HNF4A DNA FP -0.8, Vif A3G 0%, rRNA inh HTS OD600 -28 and rRNA inh HTS RFP -3.5.
CN1CCN(c2ccccc2NC(=O)c2c(F)cccc2F)CC1 was read as E coli growth 0.71, FGF22 binding inactive, rRNA inh HTS 17, ALR inh 2, MLL AF4-AF9 inh -5.6, HNF4A DNA FP -3.7, Vif A3G -5%, rRNA inh HTS OD600 2 and rRNA inh HTS RFP 0.9.
COC1=CC(=O)OC(c2cccc(C(F)(F)F)c2)C1 (centres undefined) was read as FGF22 binding inactive, rRNA inh HTS -1, MLL AF4-AF9 inh -0.2, HNF4A DNA FP 9.7, rRNA inh HTS OD600 -3 and rRNA inh HTS RFP -3.1.
Screening CCOc1ccc(-n2c(Cc3ccccc3)nnc2SCc2c(C)noc2C)cc1 returned E coli growth 0.77, ALR inh -3, HNF4A DNA FP 4.5 and Vif A3G 8%.
Cc1c(Cl)cccc1NC(=O)CCCn1nc([N+](=O)[O-])cc1C was read as E coli growth 0.7, FGF22 binding inactive, rRNA inh HTS -6, ALR inh -5, MLL AF4-AF9 inh -3.7, HNF4A DNA FP -3.9, Vif A3G -5%, rRNA inh HTS OD600 -1 and rRNA inh HTS RFP 0.8.
